Vaccinia Venus: vaccinia inhibition (Venus reporter); Potency, µM (highest dose often 36.5 µM), inactives show top-dose activity change, negative = inhibition, actives largely listed as inhibitors; 330,000 compounds, 0.46% hits; Vaccinia virus Venus reporter expression, fluorescence; active means well fitted inhibition curve with a large enough effect; inconclusive means small, poorly fitted or top-dose-only effect; inactive means no such curve, though single readings can be large or run the other way; tested in A549 cells; note: nearly all actives have a fitted effect of over 30% in size; inactives centre near -10
VACV mCherry inh: vaccinia inhibition (mCherry reporter); 310,000 compounds, 0.63% hits; Vaccinia virus mCherry reporter infection, fluorescence; about a quarter of the inactives have no number; AID 720579; Potency, µM (doses to about 36.5 µM), without a hit: at the top dose activity change, negative = inhibition, hits mostly inhibitors; active = well fitted inhibition curve with a large enough effect; inconclusive = small, poorly fitted or top-dose-only effect; inactive = no such curve, though single readings can be large or run the other way; tested in A549 cells; note: nearly all actives have a fitted effect of over 35% in size; inactives centre near -10
Numbers without * were called inactive; i = inactive; ? = inconclusive; · = no result given; & = joins results of further samples; [ ] = dose if it differs, or a comment. % is set by controls: 0 for no effect and ±100 for the full control effect; potency is the fitted concentration of half-maximal effect.

The first six compounds, ahead of the listing:
SMILES	Vaccinia Venus	VACV mCherry inh
Cc1cc(C)n(CCCNC(=O)c2ccc(C)c(S(=O)(=O)N3CCOCC3)c2)n1	-10%	-15%
CCOc1ccc(S(=O)(=O)N(C)CC(=O)NCc2ccc3c(c2)OCO3)cc1	-2%	-4%
COc1ccc(Cn2ccnc2SCC(=O)NC2CCCC2)cc1	-3%&-11%	-16%&-5%
COc1ccc(NC(=O)c2ccco2)cc1NC(=O)COc1ccccc1	-10%	-2%
CC1CN(C(=O)c2cc3ccccc3oc2=O)CC(C)O1 (stereo unspecified)	-5%	-9%
COc1cccc(-c2ncc3ccccc3c2COC(=O)CCC(=O)O)c1	1%	-13%

The list itself, from the first entry:
SMILES	Vaccinia Venus	VACV mCherry inh
Cc1cc(C)n(CCCNC(=O)c2ccc(C)c(S(=O)(=O)N3CCOCC3)c2)n1	-10%	-15%
CCOc1ccc(S(=O)(=O)N(C)CC(=O)NCc2ccc3c(c2)OCO3)cc1	-2%	-4%
COc1ccc(Cn2ccnc2SCC(=O)NC2CCCC2)cc1	-3%&-11%	-16%&-5%
COc1ccc(NC(=O)c2ccco2)cc1NC(=O)COc1ccccc1	-10%	-2%
CC1CN(C(=O)c2cc3ccccc3oc2=O)CC(C)O1 (stereo unspecified)	-5%	-9%
COc1cccc(-c2ncc3ccccc3c2COC(=O)CCC(=O)O)c1	1%	-13%
Cc1ccc(SCc2c(C(=O)N/N=C/C3CC=CCC3)nnn2-c2nonc2N)cc1 (stereo unspecified)	-7%	-18%
CCC(=O)N1CCc2cc(S(=O)(=O)NC(C(=O)NCCc3cccc(C)c3)C(C)C)ccc21 (stereo unspecified)	-2%	-17%
COCCCNC(=O)C1CCN(C(=O)c2ccc(-n3ccc4ccccc43)s2)CC1	-6%	-13%
CC(=O)c1c(C)[nH]c(-c2ccccc2)c1C	-18%	-13%
Cc1ccc(N2CC(C(=O)NCc3cccnc3)CC2=O)cc1 (stereo unspecified)	-5%	-7%
Nc1nnc(CC(=O)N/N=C\c2ccc(-c3cccc(Cl)c3)o2)s1	-6%[7.34 µM]	-11%[7.34 µM]
Cc1c(NS(=O)(=O)c2ccccc2F)c(=O)n(-c2ccccc2)n1C	-11%	i
COc1ccc(CCNS(=O)(=O)c2ccc(C3CNC(=O)C3)cc2)cc1OC (stereo unspecified)	-3%	i
O=c1cc(O)cc2n1CCC2	-5%	4%
ClC(Br)=C(n1cnc2ccccc21)n1cnc2ccccc21	0%	i
O=C(NCc1ccccc1)c1onc(CSc2ccc(Cl)cc2)c1C(=O)NCc1ccccc1	-9%	i
COC(=O)C1=C(c2cccc(OCc3ccccc3)c2)C[C@@H]2CC[C@H]1N2C(=O)NCCOc1ccccc1	?	?
O=C(c1cccc(Cl)c1)N1CCC2CC1c1cc(-c3ccc(F)cc3)ccc12 (stereo unspecified)	-5%	i
CN1/C(=N\O)c2cccc3cccc1c23	-20%	·
O=C(NCCN1CCOCC1)c1sc2ccccc2c1Cl	?	?
Cc1ccc(NC(=O)Nc2csc3c2CCCC3)c(C)c1	-12%	-12%
Cc1ccc(Cl)cc1NC(=O)c1sc2nc(-c3ccccc3)cn2c1C	-3%	7%
CCn1c(SCC(=O)NCc2ccccc2)nc2nc3c(cc2c1=O)CCCC3	-7%	-8%
COc1ccc(-c2nnc(Nc3nc4c(OC)cccc4s3)o2)c(OC)c1	-23%	?

Part of the list above in order of formula weight, largest number first:
SMILES	Vaccinia Venus	VACV mCherry inh
CCn1c(SCC(=O)NCc2ccccc2)nc2nc3c(cc2c1=O)CCCC3	-7%	-8%
COc1ccc(-c2nnc(Nc3nc4c(OC)cccc4s3)o2)c(OC)c1	-23%	?
COc1ccc(NC(=O)c2ccco2)cc1NC(=O)COc1ccccc1	-10%	-2%

Single records, from the list above. Order of values: Vaccinia Venus | VACV mCherry inh
`O=c1cc(O)cc2n1CCC2` is entered as -5% | 4%
`CCC(=O)N1CCc2cc(S(=O)(=O)NC(C(=O)NCCc3cccc(C)c3)C(C)C)ccc21` (stereo unspecified) is entered as -2% | -17%
`Cc1ccc(NC(=O)Nc2csc3c2CCCC3)c(C)c1` is entered as -12% | -12%

(further entries)
SMILES	Vaccinia Venus	VACV mCherry inh
COc1ccc(CN2C(=O)CS/C2=N/N=C/c2cccs2)cc1	-10%	i
CCNC(=S)Nc1cc(OCC)c(NC(=O)c2cccs2)cc1OCC	-3%	-12%
COCCOC(=O)C1=C(C)Nc2cc(=O)[nH]c(=O)n2C1c1cccc([N+](=O)[O-])c1 (stereo unspecified)	-10%	-12%
CCCNc1nc2c(c(=O)n(C)c(=O)n2C)n1Cc1ccc(F)cc1	-25%	?
CCCCS(=O)(=O)CC(O)CSc1nc(-c2ccc(C)cc2)cc(-c2ccccc2)c1C#N (stereo unspecified)	-16%	i
FC(F)(F)c1cccc(-c2ccn3ncnc3n2)c1	-10%	-11%
Cc1noc2ncnc(Oc3ccc4ccccc4c3)c12	-14%	-5%
COc1ccc(S(=O)(=O)N2CCN(CCc3ccccc3)CC2)c(OC)c1	-27%	-16%
CCO[C@H]1OC(C(=O)N2CCN(Cc3ccc4c(c3)OCO4)CC2)=C[C@@H](C(C)(C)C)[C@@H]1CCCO	-21%	i
O=C(/C=C/c1ccccc1)N1CCN(S(=O)(=O)c2ccc(F)cc2)CC1	-8%	-15%
Cc1occc1C(=O)N/N=C/c1cccc2ccccc12	-6%	-1%
S=c1nccc(-c2cc(Cl)sc2Cl)[nH]1	?	·
Cc1ccc(OCC(=O)NCCCNC(=O)c2ccncc2)cc1	-7%	i
CC1(CCc2ccccc2)NC(=O)N(CC(=O)Nc2ccccc2C#N)C1=O (stereo unspecified)	-6%	i
CCOC(=O)NC(=O)c1cn(Nc2ncc(Cl)cc2C(F)(F)F)c(=O)[nH]c1=O	-13%	-16%
Cc1ccc(S(=O)(=O)N2C[C@H]3C(=O)C[C@@H](c4ccccc4)N(S(=O)(=O)c4ccccc4)[C@H]3C[C@H]2c2ccccc2)cc1	-6%	15%
O=S(=O)(c1ccc(F)cc1)N1CCCC1	-10%	-14%
Cc1nn(-c2ccccc2)c(Cl)c1C(=O)NCc1ccccc1F	-6%	-6%
O=C(CSc1cccc[n+]1[O-])c1cccs1	-4%	-22%
CCC(Cc1ccccc1)NC(=O)CN(C)S(=O)(=O)c1ccc2c(c1)c(=O)n(C)c(=O)n2C (stereo unspecified)	-11%	-5%
O=C1/C(=C/c2cccc(F)c2)Oc2cc(O)ccc21	-9%	-14%
COc1ccccc1-c1cc(NCc2cccnc2)ncn1	3%	-2%
CC(C)C/C=C1\CCc2c([nH]c3ccccc23)C1=O	-22%	-17%
Cc1c(C(=O)NCc2ccc3c(c2)OCO3)oc2ccc(S(=O)(=O)N3CCCC3)cc12	-22%	-27%
Cc1noc(C)c1CSc1ccccc1C(=O)N(C)CC(=O)Nc1cccc(F)c1	-9%	1%
(list continues)
SMILES	Vaccinia Venus	VACV mCherry inh
Cc1nc2c(c(C)nn2-c2ccccc2)c(C)c1Cl	-2%	-12%
COc1ccc(Oc2ncnc3c2oc2ccc(Br)cc23)cc1	-4%	-11%
Cc1nnc2ccc(-c3cccc(NS(=O)(=O)c4cc(F)ccc4F)c3)nn12	-15%	-14%
COc1ccc(CNC(=O)CNS(=O)(=O)c2ccc(Cl)cc2)cc1	-21%	-19%
Cc1c(-c2ccccc2)[nH]n2c(=O)c3c(nc12)CCCC3	-16%	-13%
COC(=O)C1(C)CCC(C(=O)Nc2ccccc2)C1(C)C (stereo unspecified)	-2%	-12%
O=S(=O)(c1ccc(F)cc1)N1CCC(N2CCCC2)CC1	-15%	-3%
Cc1cccc(NC(=O)c2n[nH]c([N+](=O)[O-])c2Br)c1C	-9%	i
C[C@@H]1CCC[C@@]2(O[C@@H](CCO)C[C@@H](O)[C@@H]2O)O1	-11%	-14%
CCOC(=O)C1C(=O)C=C(c2cccc(NS(C)(=O)=O)c2)CC1c1ccco1 (stereo unspecified)	-14%	-19%
COc1cc(F)ccc1-c1csc(C(C)(O)c2ccc(F)c(F)c2)n1 (stereo unspecified)	-4%	i
OC[C@H]1O[C@@H]2O[C@H]3[C@H](O)[C@@H](O)[C@@H](O[C@H]4[C@H](O)[C@@H](O)[C@@H](O[C@H]5[C@H](O)[C@@H](O)[C@@H](O[C@H]6[C@H](O)[C@@H](O)[C@@H](O[C@H]7[C@H](O)[C@@H](O)[C@@H](O[C@H]1[C@H](O)[C@H]2O)O[C@@H]7CO)O[C@@H]6CO)O[C@@H]5CO)O[C@@H]4CO)O[C@@H]3CO	-13%	i
CC(=O)Oc1ccc(C(c2ccc(OC(C)=O)cc2)c2ccccn2)cc1	-11%&-9%	-3%
COc1ccc(CNC(=O)CCS(=O)(=O)c2ccc3c(c2)CC(C)N3C(=O)C2CC2)cc1 (stereo unspecified)	-22%	-25%
C=CCn1c(COc2ccc(CC)cc2)nnc1SCC(=O)N(C)C1CCS(=O)(=O)C1 (stereo unspecified)	-8%	i
Cc1[nH]c2ccccc2c1C(=O)CSc1nc2ncc(Cl)cc2[nH]1	-18%	-7%
CCc1ccccc1N/C(=N\S(=O)(=O)c1ccccc1)C(F)(F)F	-9%	-17%
CN1CCN(S(=O)(=O)c2ccc(Sc3nc4ccccc4[nH]3)c3nsnc23)CC1	6%	·
Cc1ccc(C(=O)Cn2c(C(=O)OCCO)cc3ccccc32)cc1	-14%	-13%
Cn1cccc1Cc1nnc(SCC(N)=O)n1-c1ccc(F)cc1	-2%	-7%
CSc1nc2ccccc2c(=O)n1C1CCCCC1	-21%	i
CC(C)NC(=O)C1CCCN(S(=O)(=O)c2cccs2)C1 (stereo unspecified)	?	·
CCOc1ccc(C(=O)c2cnc3ccccc3c2N2CCN(CC)CC2)cc1	-8%	7%
N#Cc1ccccc1NC(=O)COc1ccc2c(c1)OCO2	0%	-20%
O=C1CC(N2CCN(c3ccc(O)cc3)CC2)C(=O)N1Cc1cccs1 (stereo unspecified)	-2%	·
More compounds:
SMILES	Vaccinia Venus	VACV mCherry inh
O=C(NC1CCCCCC1)C1CCN(C(=O)N2CCOc3ccc(Cl)cc32)CC1	-21%	-11%
COC(=O)c1cc2c(cn1)[nH]c1ccccc12	-6%	-14%
COc1ccc(N2CCN(C(c3ccccc3OC)c3nnnn3Cc3ccco3)CC2)cc1 (stereo unspecified)	-22%	-20%
CCOC(=O)c1cnn(CCOC(=O)c2ccc(F)cc2)c1NC(=O)c1ccc(F)cc1	-6%	-6%
Cc1cccc(N2CCN(S(=O)(=O)c3cccc4nonc34)CC2)c1C	-14%	-6%
O=C(NC12CC3CC(CC(C3)C1)C2)c1ccc(Br)o1	-7%	-7%
COc1ccccc1CNC(=O)C1CCN(C2=NS(=O)(=O)C(c3ccc(C)c(C)c3)=C2C)CC1	-16%	-17%
COc1ccc2c(c1)c1c(c(=O)n(-c3ccc(C)cc3)c(=O)n1CC(=O)NCc1ccc(C)cc1)n2C	5%	-1%
COc1cc(C)c(C(=O)CC(=O)c2c(C)cc(OC)cc2C)c(C)c1	?	?
COC(=O)CNC(=O)C1CCCN1C(=O)CNC(=O)OC(C)(C)C (stereo unspecified)	-9%	·
COc1cccc(CN2CCN(C(c3ccccc3)c3ccccc3)CC2)c1O	-1%	?
COCCCNC(=O)c1ccc(-c2nc(CS(=O)(=O)c3ccc(C)cc3)c(C)o2)cc1	-11%	-8%
NC(=O)c1ccc(NC(=O)CCN2C(=O)c3ccccc3C2=O)cc1	-4%	-10%
CCn1cc(C(=O)O)c(=O)c2ccc(C)nc21	-13%&-7%&-21%	-12%&-13%&0%
CC1(C)CC(=O)C=C(NNC(=O)C2CCCCC2)C1	3%	-13%
Oc1ccccc1C1SC(c2ccccc2O)SC(c2ccccc2O)S1 (stereo unspecified)	?	?
C#CCOCCOCCOCCNc1nc(N2CCN(C(=O)Cn3cc(CC(C)O)nn3)CC2)nc(N2CCN(C(=O)[C@H](CCCCN)n3cc(CCCC)nn3)CC2)n1 (stereo partly specified)	-1%	i
COc1ccccc1N1CCN(c2nccc(C)n2)CC1	-16%	-5%
COc1ccc(CC(=O)NNC(=O)COc2ccc(F)cc2)cc1S(=O)(=O)N1CCOCC1	0%	-11%
N#C/C(=C\c1cccs1)C(=O)NCc1ccccc1	-5%	-12%
O=c1[nH]oc2c1CCNC2	-7%&-7%	-5%
O=C1COc2ccc(S(=O)(=O)Nc3ccc(F)cc3)cc2N1	-28%	-15%
CCN=C1SC(CC(=O)Nc2ccccc2)C(=O)N1CC (stereo unspecified)	-13%&-9%	-1%&-16%
CS(=O)(=O)c1cccc(NC(=O)C2CC2)c1	-13%	?
O=C(Nc1nnc(Cc2ccccc2)s1)c1cnccn1	-11%	i
More entries:
SMILES	Vaccinia Venus	VACV mCherry inh
O=C(O)CCSc1nnc(-c2ccc3c(c2)OCO3)o1	-10%	-18%
Cc1cc(=O)[nH]c2c(C)cc(S(=O)(=O)NCc3ccccc3)cc12	-17%	-17%
O=C1c2ccccc2C(=O)N1CCCCN(C(=O)c1cc([N+](=O)[O-])ccc1Cl)c1ccc(Cl)cc1	-9%	-15%
OCCC1CN(C2CSCCSC2)CCN1Cc1ccccc1 (stereo unspecified)	-8%	-29%
Oc1ccc2oc3c(c2c1)CCCC3	-25%	-2%[1.46 µM]
O=C(c1ccc(Cl)cc1)C1C2C(=O)N(c3ccccc3)C(=O)C2C2CCCN21 (stereo unspecified)	-5%	i
O=c1nc(-c2ccccc2)cn[nH]1	-2%	-12%
CSc1nnc(-c2ccc(C(F)(F)F)nc2C)o1	-9%[7.34 µM]	-26%[7.34 µM]
CCCCc1ccc(NS(=O)(=O)c2ccc(N3CCCCS3(=O)=O)cc2)cc1	-13%	-9%
O=C(Cn1c(=O)nc(-c2ccccc2)c2cc(Cl)ccc21)NCc1ccccc1	?	?
CSCCC(c1nnnn1-c1c(C)cccc1C)N1CCC(n2c(=O)[nH]c3ccccc32)CC1 (stereo unspecified)	?	?
O=C(CSc1ccc([N+](=O)[O-])cc1)Nc1nnc(C2CC2)s1	1%	-11%
